Bioassay records: PubChem, several laboratories
MT1-MMP act inh: blockers of MT1-MMP proenzyme processing, primary screen, HT1080 RFP-PRO-GFP cells, GFP/RFP fluorescence | GFP/RFP ratio fluorescence, overnight; percent of plate control window, DMSO zero | GFP/RFP ratio change, % at 20 µM | hit rate 0.061% among 360,000 | Matrix metalloproteinase-14 (Homo sapiens), P50281;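 active means GFP/RFP ratio change of at least 30% with cell ATP level not reduced by more than half and red fluorescence within 50% of control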; further: strong numbers were not always called active
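Assay system: HT1080 RFP-PRO-GFP cells. Benchmarks: DMSO vehicle wells and RFP-L50D-GFP reporter cell wells. Times: overnight cell settling, then overnight compound exposure, 37 °C, 5% CO2. Compound: 20 µM single dose, 1% DMSO. Read-out basis: GFP/RFP fluorescence ratio.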
PABP FP inh: PABP poly(A) RNA binding inhibitors, primary screen, biochemical, fluorescence polarization, uHTS; Polyadenylate-binding protein 1 (Homo sapiens), P11940; inhibition, % at 35 µM; hit rate 1% among 290,000; AID 2014, 2009;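 active means 50% or more with normal probe brightness, or confirmed in later tests; about a fifth of its hits are not listed in these tables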;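 further: calls also rest on retests at 20 µM and on dose response follow-up; controls were probe without protein and protein plus probe with vehicle; some compounds called inactive have numbers as strong as hits; many hits fall short of the cut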
eIF4H FP inh: human eIF4H binding inhibitors, primary screen, translation initiation inhibitor project, biochemical, uHTS, fluorescence polarization; eIF4H fluorescence polarization binding assay; inhibition, % at 35 µM; hit rate 0.94% among 290,000; AID 2012, 2009;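 active means 50% or more with normal probe brightness, or confirmed in later tests; about a fifth of its hits are not listed in these tables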;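 further: calls also rest on retests at 20 µM and on dose response follow-up; 0% = protein and probe with vehicle and 100% = probe without protein; strong numbers were not always called active; many hits fall short of the cut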
Rce1 inh: yeast Rce1p protease inhibitors, primary screen, biochemical, fluorescence, cell-free homogeneous; CAAX prenyl protease 2 (Saccharomyces cerevisiae (strain ATCC 204508 / S288c)), Q03530; yeast membranes, quenched prenylated peptide cleavage fluorescence; calls only; hit rate 0.27% among 290,000; AID 2563, 2010;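 active means fall in fluorescence gain of 50% or more versus controls, with final raw signal at or below 3038400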;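 further: plate controls were neutral control wells for no effect and wells lacking membranes for full effect; tested at 10 µM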
Target sequence (Q03530 whole entry, looked up): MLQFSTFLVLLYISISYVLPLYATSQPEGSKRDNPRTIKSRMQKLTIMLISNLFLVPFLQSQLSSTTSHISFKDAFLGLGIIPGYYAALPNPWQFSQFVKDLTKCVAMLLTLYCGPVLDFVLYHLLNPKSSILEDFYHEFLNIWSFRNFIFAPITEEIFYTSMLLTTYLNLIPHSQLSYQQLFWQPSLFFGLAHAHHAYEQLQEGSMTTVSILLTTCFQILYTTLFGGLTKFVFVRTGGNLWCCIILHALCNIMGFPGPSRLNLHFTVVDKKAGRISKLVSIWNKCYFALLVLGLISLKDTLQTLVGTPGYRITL
CSC inhib: cancer stem cell viability inhibitors, primary screen, luminescence | cancer stem cell-like cells viability | inhibition, % at 7.5 µM | hit rate 1.1% among 300,000 | AID 2717, 2010;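 active means mean at 75% or more and at least half the replicates too; tested in HMLE shEcad cells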;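 further: 0% = median of negative and 100% = median of positive control wells; the first replicate is given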
Yeast UUG start: modulators of yeast start codon fidelity, primary screen, whole organism, S. cerevisiae, single point, plate reader | S. cerevisiae UUG-firefly luciferase reporter, luminescence/redox ratio | activity score, % at 18.7 µM | hit rate 0.13% among 350,000;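 active means replicate mean at a twofold rise or more, about +100% in these data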;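 further: firefly luciferase made from a UUG start codon reports start codon fidelity; reporter light over untreated wells divided by growth signal over untreated wells; some hits fall short of that in this replicate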
Env fusion inh: inhibitors of HIV-1 Env-driven cell-cell fusion, primary screen, HeLa-JRFL effector, CEM21 target cells, luciferase. hit rate 1.1% among 360,000. inhibition, % at 12.3 µM. AID 651610, 2012;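 active means mean replicate inhibition score of at least 50 and every replicate individually at or above 50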;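 further: 0% = plate neutral controls and 100% = maraviroc near 300 nM; one replicate is shown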
MT1-MMP act inh RFP: recorded beside MT1-MMP act inh, whose call it bears; RFP signal change, %; measured here: RFP expression control read;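 0 = vehicle wells; hits needed this value within 50% of zero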
* marks the source's active call; other numbers are inactive results; i = inactive; . = no result given; & = joins results of further samples; [ ] = another dose, or the depositor's remark. The order is random (roughly 2.9% active in at least one column).

SMILES	MT1-MMP act inh	MT1-MMP act inh RFP	PABP FP inh	eIF4H FP inh	Rce1 inh	CSC inhib	Yeast UUG start	Env fusion inh
C[C@H](O)[C@@H]1C(=O)N2CCc3ccc(N4CCN(C)CC4)cc3[C@@H]2C[C@@H]1N(C)C(=O)Nc1cc(Cl)cc(Cl)c1	-3	3	.	.	.	.	-4	-30
N/N=C(\Cc1cscn1)c1ccc(O)cc1O	-3	2	6	-2	i	19	-16	-18
CN(C(=O)CN1C(=O)NC2(CCc3ccccc32)C1=O)C1CCCCC1 (stereo not given)	2	5	.	.	.	-27	-11	-15
COc1ccccc1C(C)NC(=O)c1ccc(C)o1 (stereo not given)	-4	-3	9	-10	i	14	-16	.
Cn1c(SCc2ccccc2Cl)nc2c1c(=O)[nH]c(=O)n2C	4	2	6	-5	i	-5	-12	-171
O=C(Nc1ccccc1Cl)Nc1ccnn1C1CCN(C(=O)CCN2CCCO2)CC1	1	2	6	-14	i	-4	-8	-2
O=C(c1ccc2c(c1)OCCO2)N1CCN(S(=O)(=O)c2c(F)cccc2F)CC1	4	2	.	.	.	11	1	1
O=C(Nc1cccnc1)c1cnn2cccnc12	1	3	8	-2	i	6	.	.
O=P(COCCOCCOCP(=O)(c1ccccc1)c1ccccc1)(c1ccccc1)c1ccccc1	4	5	-13	-3	i	-3	.	-12
Cc1cc(C)n2nc(C(=O)OCC(=O)c3ccccc3Cl)nc2n1	-1	0	.	.	.	-13	2	.
O=C(CCN1C(=O)C2CC=CCC2C1=O)OCC(=O)c1ccc(F)cc1 (stereo not given)	-1	0	.	.	.	-21	-10	.
C[C@@H]1CN([C@H](C)CO)C(=O)CCCn2cc(nn2)CO[C@H]1CN(C)S(=O)(=O)c1ccccc1F	4	7	.	.	.	.	-7&-17	15[16.7 µM]
O=C1CC(N(CCc2ccccc2)C(=S)Nc2ccccc2)C(=O)N1c1ccc(F)cc1 (stereo not given)	3	-2	-1	3	i	38	-21	-8
CC(CCc1ccco1)NC(=O)Cn1ncc2c(=O)oc3ccccc3c21 (stereo not given)	8	-1	1	2	i	5	0	-1
COc1ccc(NC(=S)NC2CC3CCC2C3)c(OC)c1 (stereo not given)	1	-1	15	-12	i	-7	-25	-9
Cc1nn(Cc2ccc([N+](=O)[O-])cc2)c(=O)n1-c1cccc(Cl)c1	4	2	-1	-6	i	-1	.	17
CC(C)=C1C2CC2C2C(C(=O)O)C12 (stereo not given)	1	0	9	-4	i	-9	-4	.
O=C1C=C(c2ccc3c(c2)OCCO3)C[C@@H](c2ccc(F)cc2)C1	0	0	.	.	.	35	-9	-50
CCN(Cc1ccncc1)Cc1nc(-c2ccc(C(=O)OC)cc2)no1	-5	-6	-6	-2	i	-15	-15	1
Cc1csc2c(N3CCN(C(=S)Nc4ccc(F)cc4F)CC3)ncnc12	11	-12	-5	-2	i	14	-21	13
CCc1nc2ccc(C(=O)Nc3cccc(OC)c3)cn2c1N(C)Cc1ccc(OC)cc1	1	-4	.	.	.	.	-27	30
CCOC(=O)C1CCCN(CCC(=O)Nc2cc(C)ccc2C)C1 (stereo not given)	3	0	4	5	.	9	-8	-7
CCN(CC)c1ccc(S(=O)(=O)N2CCOCC2)cc1NC(=O)COC(=O)/C=C/c1ccccc1	-3	0	.	.	.	.	-10	-1
COc1ccc2c(c1)c(-c1csc(N)n1)c(C)n2C	15	15	10	7	i	1	10	9
CCOC(=O)CN1C(=O)N2C[C@H]3CON(C)[C@H]3C[C@H]2c2ccccc21	2	5	.	.	.	.	-9	-2
CNC(=S)NNC(=O)c1cccs1	-2	1	8	-13	i	5	.	-11
COc1ccc(NS(=O)(=O)c2cc(C(=O)Nc3ccccc3C(=O)O)ccc2C)cc1	-2	-6	5	13	i	-8	0	3
COc1cccc(NC(=O)N2CCCC2C(=O)Nc2cc(C)ccc2OC)c1 (stereo not given)	-2	-1	0	1	i	4	-15	-2
Cc1cccc(C)c1NC(=O)COc1ccc2c(C)c(Cc3ccccc3)c(=O)oc2c1C	1	-1	-13	-2	i	1	.	-15
COC(=O)c1c(NC(=O)CN2CCN(C(=O)c3ccco3)CC2)c2c(C)cccc2n1C	0	3	-15	1	i	-16	-2	.
CCOC(=O)C(=CN(CCc1ccccc1)CC(=O)OC)C(=O)OCC	8	3	-4	-6	i	-3	-13	13
COC(=O)[C@@H](NC(=O)NC1CCCc2ccccc21)C(C)C (stereo not given in full)	-1	2	-4	-5	i	-1	-5	-28
Cc1cn([C@H]2C[C@H](O)[C@@H](/C=C/C(=O)NCc3ccc(N(C)C)cc3)O2)c(=O)[nH]c1=O	4	2	.	.	.	.	-7	-2
CC(C)(C)OC(=O)C[C@H]1C/C=C\C[C@@H](CC(=O)N(CCO)Cc2ccccc2)C(=O)NC[C@H](c2ccccc2)OC1=O	4	3	.	.	.	.	12	-1
O=C1NC(=O)C2(COC(c3cccnc3)OC2)S1 (stereo not given)	-3	0	-10	-2	i	-13	.	7
COc1cccc(/C=N/NC(=O)c2csc(-n3nc(C)cc3C(F)(F)F)n2)c1	3	-1	1	6	i	20	-9	-8
COCCCNc1ncnc2sc3c(c12)CCC(C)C3 (stereo not given)	-1	-7	-6	-9	i	-16	-3	.
Cc1ccc(NC(=O)NNC(=O)c2sccc2-n2cccc2)cc1	1	0	0	-4	i	-6	.	-3
C[C@]1(C(=O)O)Cc2oncc2C[C@@H]1C(=O)O	3	7	0	4	i	-7	.	-6
CC(C)(C)c1ccc(NC(=O)Nc2ccc3ccccc3n2)cc1	0	0	4	1	i	6	-12	-2
COC(=O)N/N=C/c1ccccc1	0	1	-2	7	i	.	.	-30
Cc1ccc(CN2CCC(n3nccc3NC(=O)C3CCOC3)CC2)cc1 (stereo not given)	-1	3	9	2	i	-5	-18	-35
COC(=O)c1nnc(-c2ccccc2)c(-c2ccccc2)n1	2	5	10	4	i	0	-14	-4
Cc1ccc(S(=O)(=O)n2nc(OC(=O)c3ccccc3F)cc2N)cc1	0	1	10	12	i	3	-9	5
CCn1cc(S(=O)(=O)CC(=O)N2CCc3ccccc32)c2ccccc21	0	3	2	1	i	-8	11	1

15 structures from above, sorted by SMILES length, ascending:
SMILES	MT1-MMP act inh	MT1-MMP act inh RFP	PABP FP inh	eIF4H FP inh	Rce1 inh	CSC inhib	Yeast UUG start	Env fusion inh
COC(=O)N/N=C/c1ccccc1	0	1	-2	7	i	.	.	-30
COCCCNc1ncnc2sc3c(c12)CCC(C)C3 (stereo not given)	-1	-7	-6	-9	i	-16	-3	.
O=C1NC(=O)C2(COC(c3cccnc3)OC2)S1 (stereo not given)	-3	0	-10	-2	i	-13	.	7
C[C@]1(C(=O)O)Cc2oncc2C[C@@H]1C(=O)O	3	7	0	4	i	-7	.	-6
COC(=O)c1nnc(-c2ccccc2)c(-c2ccccc2)n1	2	5	10	4	i	0	-14	-4
Cc1ccc(NC(=O)NNC(=O)c2sccc2-n2cccc2)cc1	1	0	0	-4	i	-6	.	-3
COC(=O)[C@@H](NC(=O)NC1CCCc2ccccc21)C(C)C (stereo not given in full)	-1	2	-4	-5	i	-1	-5	-28
CCOC(=O)C(=CN(CCc1ccccc1)CC(=O)OC)C(=O)OCC	8	3	-4	-6	i	-3	-13	13
COc1cccc(NC(=O)N2CCCC2C(=O)Nc2cc(C)ccc2OC)c1 (stereo not given)	-2	-1	0	1	i	4	-15	-2
Cc1ccc(S(=O)(=O)n2nc(OC(=O)c3ccccc3F)cc2N)cc1	0	1	10	12	i	3	-9	5
COc1cccc(/C=N/NC(=O)c2csc(-n3nc(C)cc3C(F)(F)F)n2)c1	3	-1	1	6	i	20	-9	-8
Cc1cccc(C)c1NC(=O)COc1ccc2c(C)c(Cc3ccccc3)c(=O)oc2c1C	1	-1	-13	-2	i	1	.	-15
COC(=O)c1c(NC(=O)CN2CCN(C(=O)c3ccco3)CC2)c2c(C)cccc2n1C	0	3	-15	1	i	-16	-2	.
Cc1cn([C@H]2C[C@H](O)[C@@H](/C=C/C(=O)NCc3ccc(N(C)C)cc3)O2)c(=O)[nH]c1=O	4	2	.	.	.	.	-7	-2
CC(C)(C)OC(=O)C[C@H]1C/C=C\C[C@@H](CC(=O)N(CCO)Cc2ccccc2)C(=O)NC[C@H](c2ccccc2)OC1=O	4	3	.	.	.	.	12	-1

Next section.
SMILES	MT1-MMP act inh	MT1-MMP act inh RFP	PABP FP inh	eIF4H FP inh	Rce1 inh	CSC inhib	Yeast UUG start	Env fusion inh
Cc1c(C)n(CCc2ccccc2)c2ncnc(NCCCN(C)C)c12	2	-3	7	-11	i	76*	-6	9
CCOC(=O)C1CCN(C(=O)COC(=O)c2ccc3c(c2)C(=O)N(c2ccc(OCC)cc2)C3=O)CC1	3	3	20	-1	i	.	-6	-2
CC(C)CCNC(=O)CN(CCCN1CCOCC1)C(=O)Cn1nnc(-c2ccc(F)cc2)n1	-3	1	6	2	i	-8	-12	-5
Cc1ccc(NC(=O)CCC(=O)N/N=C/c2cccnc2)cc1	-2	0	5	3	i	.	.	-1
CCc1cccc(CC)c1NC(=O)COC(=O)CC1c2ccccc2CCN1S(=O)(=O)c1ccc(F)cc1 (stereo not given)	-5	0	-6	-14	i	19	-37	-24
CCc1cc(=O)oc2cc(C)cc(OCC(=O)NC(Cc3c[nH]c4ccc(O)cc34)C(=O)O)c12 (stereo not given)	-1	6	33	36	i	-8	-15	.
Cc1ccc(C2=N/C(=C/c3cccs3)C(=O)N2Nc2ccccc2)cc1	5	-2	-3	-10	i	35	-3	.
Cc1ccc(Oc2ccc(S(=O)(=O)N3CCOCC3)cc2C(N)=O)cc1C	2	1	7	-8	i	-2	-3	-14
COc1ccc(CCNC(=O)c2c[nH]c3ccccc3c2=O)cc1OC	5	6	2	-5	i	-14	-17	-2
COc1ccc(OC)c(NS(=O)(=O)c2c(C)nc3sccn3c2=O)c1	3	5	-3	-4	i	-3	-8	30
O=C(COc1ccc(F)cc1)OCCN1CCOCC1	2	6	13	-6	i	-9	-9	.
CC(=O)OCC(=O)[C@@]1(O)CC[C@H]2[C@@H]3CCC4=CC(=O)C=C[C@]4(C)[C@H]3C(=O)C[C@@]21C	1	5	-3	-5	i	-17	15	-24
Cc1ccc2nsnc2c1NC(=O)c1ccc([N+](=O)[O-])o1	1	0	3	-2	i	63	-1	.
O=C(Nc1ccccc1)C1Cc2c(-c3ccc4c(c3)OCO4)ccnc2O1 (stereo not given)	-3	-5	.	.	.	.	-3	-9
CCCc1cc(C(=O)Nc2cccc([N+](=O)[O-])c2)cs1	2	-9	-5	-9	i	6	-18	-51
